Source: PubChem BioAssay (National Center for Advancing Translational Sciences (NCATS))
Sfp PPTase inh – blocks B. subtilis Sfp PPTase activity; Potency, µM, inactives show max response, negative = inhibition, usual class: inhibitors; 3.5% of 310,000 active; AID 1490; Biochemical Sfp PPTase activity, qHTS; active = well fitted inhibition curve with a large enough effect; inconclusive = small, poorly fitted or top-dose-only effect, or another doubt; inactive = no such curve, though single readings can be large or run the other way;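 also: the enzyme is Sfp with the accession as filed and its product quenches rhodamine fluorescence; potency is read from the fitted curve at half-maximal effect; 0% = enzyme reaction without inhibitor and -100% = no enzyme wells; top concentration of the series not given in the record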
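Step 1, compound plus 15 nM Sfp-PPTase, 15 min, room temperature. Step 2, add rhodamine-CoA (5 uM) and BHQ-2-YbbR (12.5 uM). Step 3, read 525/598 nm fluorescence at 0 and 30 min.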
Menin-MLL FL inh – menin-MLL binding inhibition, fluorescein peptide. 290,000 tested, under 10 active. Fluorescence polarization, fluorescein-MLL peptide displacement from menin. FP activity change, % at 61.4 µM; inconclusive = falling polarisation curve, or a change in total fluorescence; inactive = total fluorescence flat and polarisation flat or rising; no compound was filed as active; the % refers to the polarisation; negative = inhibition;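 also: % of control where 0% means no effect; inhibitors lower the polarisation; unlabelled MLL peptide was the positive control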
* = called active by the depositor; ? = inconclusive; & = joins results of further samples; [ ] = another dose, or the depositor's remark. This is a subset; rates above refer to the full screens.

SMILES | Sfp PPTase inh | Menin-MLL FL inh
CC[C@H](C)[C@H](NC(=O)CNC(=O)[C@H](CCCNC(=N)N)NC(=O)[C@H](CO)NC(=O)[C@H](C)NC(=O)[C@H](Cc1ccc(O)cc1)NC(=O)[C@H](Cc1c[nH]c2ccccc12)NC(=O)[C@H](C)NC(=O)[C@@H]1CCCN1C(=O)[C@H](CC(N)=O)NC(=O)[C@@H](NC(=O)[C@H](CC(=O)O)NC(=O)[C@@H]1CCCN1C(=O)[C@@H](NC(=O)[C@H](CCCNC(=N)N)NC(=O)[C@@H](NC(=O)[C@H](CCC(=O)O)NC(=O)[C@H](CCSC)NC(=O)[C@H](CO)NC(=O)[C@H](Cc1cnc[nH]1)NC(=O)[C@H](CCCNC(=N)N)NC(=O)[C@H](Cc1cnc[nH]1)NC(=O)[C@@H](NC(=O)[C@H](CCCNC(=N)N)NC(=O)[C@@H](N)CO)[C@@H](C)O)[C@@H](C)CC)[C@@H](C)O)[C@@H](C)CC)C(=O)N[C@@H](CCCNC(=N)N)C(=O)N1CCC[C@H]1C(=O)N[C@H](C(=O)NCC(=O)N[C@@H](CCCNC(=N)N)C(=O)N[C@@H](Cc1ccccc1)C(N)=O)C(C)C | 17% | -3.0
O=P(O)(O)OC1[C@H](O)[C@H](OP(=O)(O)O)C(OP(=O)(O)O)[C@H](OP(=O)(O)O)[C@H]1O (stereo partly specified) | 15% | -0.2[2.29 µM]
COc1cccc(Cn2c(=O)c(-c3cn(C)c4ccccc34)nc3cnc(N4CCNCC4)nc32)c1 | ? | ?
CCCCCc1ccc(C)cc1O | 29% | -2.2
CCCCCC(=O)c1c(O)cc(OC)c(Cl)c1O | 3% | 2.0
CN(C)C(=O)c1ccc(-c2cncnc2N2CCNCC2)cc1 | 23% | -4.0
Cc1nc(NC2CCCCC2)c2nc(-c3ccccc3)n(CCCN(C)C)c2n1 | 0% | 0.7
Cc1noc(C)c1C(=O)N1CCC[C@@]2(CCN(C(=O)Nc3ccccc3)C2)C1 | 6% | -1.4
CC(C)CCC[C@@H](C)[C@H]1CC[C@H]2[C@@H]3CC=C4C[C@@H](O)CC[C@]4(C)[C@H]3CC[C@]12C | 13% | 1.7
O=c1c(-c2ccc(F)cc2)nc2cnc(Oc3cccc(Cl)c3)nc2n1C1CC1 | 31%[activator] | -7.4
COC(=O)NC(/C(C(=O)OC)=C(\C)NCc1ccccc1)c1ccco1 (stereo unspecified) | 5% | 2.4[11.7 µM]
CCCCN1CCCC1C(=O)Nc1c(C)cc(C)cc1C (stereo unspecified) | -15% | -3.2
CCCn1c(C)nc2c(N3CCOCC3)nc(C)nc21 | 26% | 0.0
C=C1CCN(C(CC(C)C)C(=O)NN2CCOCC2)S(=O)(=O)c2ccccc21 (stereo unspecified) | 0% | 2.5
CCC(=O)OC1(C)C(=O)C=C2C=C(/C=C/COC)OC=C2C1=O (stereo unspecified) | -4% | 0.9
Cc1noc(C)c1-c1cc(N(C)Cc2ccco2)ncn1 | 56µM* | -7.4
COc1ccc2c(c1)O[C@@H](c1ccc3c(c1)OCO3)[C@H](OC(=O)NS(=O)(=O)c1ccc(C)cc1)C2=O | 1% | 0.6
CO[C@@H]1COC(=O)C/C=C\[C@@H](C)COC(=O)[C@H](COCc2ccccc2)NC(=O)C/C=C\[C@H]1C | 21% | -1.0[11.7 µM]
COc1cc(OC)cc(-c2nnc3n2N=C(c2cc(OC)ccc2OC)CS3)c1 | -6% | ?
OC1OC[C@@H](O)[C@@H](O)[C@@H]1O (stereo partly specified) | 0% | ?
CC1OC(OC2CCC3(C)C(CCC4C3CC(O)C3(C)C(C5=CC(=O)OC5)CCC43O)C2)CC(O)C1OC1CC(O)C(OC2CC(O)C(OC3OC(CO)C(O)C(O)C3O)C(C)O2)C(C)O1 (stereo unspecified) | 29% | 2.8
Nc1ccn([C@@H]2O[C@H](CO)[C@H](O)C2(F)F)c(=O)n1 | -16% | 1.1
CC(C)COC(=O)N1C(COCc2ccccc2)CCC=CS1(=O)=O (stereo unspecified) | -3% | 1.1
O=c1c(O)c(-c2ccccc2O)oc2cc(O)cc(O)c12 | 7% | 16
CCOC(=O)N/N=C1/C[C@@H](O)[C@@H](O)[C@@H]2[C@@H]3C(=O)N(Cc4ccc5c(c4)OCO5)C(=O)[C@H]3CC[C@H]12 | -3% | 0.0[11.7 µM]
O=C(c1csnn1)N1CCC2(CCCN(c3cccc(-c4ccccc4)c3)C2)CC1 | -13% | ?
CC[C@H](NC(=O)[C@H](CCC(=O)O)NC(=O)[C@H](CCC(=O)O)NC(=O)[C@H](CC(=O)O[S+](=O)([O-])c1cccc2c(NCCN)cccc12)NC(=O)[C@H](CCC(=O)O)NC(=O)[C@H](CC(=O)O)NC(C)=O)C(=O)ON[C@@H](C)C(=O)N[C@@H](CO)C(=O)N[C@@H](CCCCNC(=O)c1ccc(N=Nc2ccc(N(C)C)cc2)cc1)C(N)=O | -21% | 8.4
O=c1c(-c2ccc(F)cc2)nc2cnc(Nc3ccccc3)nc2n1C1CC1 | 22% | -0.8
CN(Cc1ccco1)c1cc(-c2cccc(C#N)c2)ncn1 | 0% | -5.4
COc1ccc(C(=O)N2CCC3(CCN(Cc4ccccc4)CC3)CC2)cc1 | 20% | 1.3
CCCCc1nc2c(c3c1C[C@H](C)OC3)CN(S(=O)(=O)CCCC)CC2 | -4% | -2.2[11.7 µM]
COc1ccc2c(c1)C(=O)[C@@H](OC(=O)NS(=O)(=O)c1ccc(F)cc1)[C@H](c1ccc(OC)c(Br)c1)O2 | -5% | 3.6
Nc1ccc(S(=O)(=O)Nc2cccc3cccnc23)cc1 | 11% | -1.0
COc1ccc(-c2noc(-c3cc4ccccc4oc3=O)n2)cc1 | -4% | -1.3
NCCC(O)C(=O)NC1C[C@@H](N)[C@H](O[C@@H]2OC(CN)C(O)C(O)C2O)C(O)[C@H]1O[C@H]1OC(CO)C(O)C(N)C1O (stereo partly specified) | -5% | -2.0
COC(=O)N1CCC2(CCN(C(=O)Nc3ccccc3)CC2)CC1 | -2% | 0.8
CO[C@]1(C2=NCCN2)COc2ccccc2O1 | -20% | 13
Cc1nc2cnc(Oc3ccccc3)nc2n(CCC#N)c1=O | 5% | 14
Cn1c(=O)c(-c2cc(F)cc(F)c2)nc2cnc(Oc3ccccc3)nc21 | -4% | 1.4
CO[C@H]1COC(=O)[C@H](C)NC(=O)C/C=C\[C@@H](C)[C@H](OC)COC(=O)[C@@H](OCc2ccccc2)/C=C\[C@@H]1C | 2% | -1.4[11.7 µM]
CCN(CC)CCCC(C)n1c(-c2ccccc2)nc2c(NCc3ccccc3)nc(C)nc21 (stereo unspecified) | -5% | -2.0
O=C(c1noc2c1CCCC2)N1CCN(C(c2ccccc2)c2ccccc2)CC1 | 16% | -0.2
CC1(C)S[C@@H]2[C@H](NC(=O)C(N)c3ccccc3)C(=O)N2[C@H]1C(=O)O (stereo partly specified) | 21% | 0.8[24.8 µM]
CCNc1ncc2nc(-c3ccccc3)c(=O)n(Cc3cccs3)c2n1 | 17% | 1.2
COC(=O)CC1C(C)(C)C(=O)C2CC3C4=CC(=O)OC(c5ccoc5)[C@]4(C)CCC3[C@@]1(C)C2=O (stereo partly specified) | 2% | -0.9
CN(C)C(=O)c1ccc(-c2nccc(-n3ccnc3)n2)cc1 | -6% | 2.5
COCC1=Cc2cc3c(cc2C(C(C(=O)OC)C(=O)OC)N1C(=O)OC)OCO3 (stereo unspecified) | 11%&14% | -4.2
O=C(Oc1ccccc1)N1CCC2(CCCN(c3ccccc3)C2)CC1 | -12% | 17
CN(C)c1ncc2nc(-c3ccc(F)cc3)c(=O)n(-c3ccccc3)c2n1 | 28% | ?
COc1cccc(Cn2c(=O)c(-c3cccc(Cl)c3)nc3cncnc32)c1 | -16% | 6.9
CCCCCCCCCCOc1cc(OCCCCCCCCCC)cc(N(CC(=O)O)CC(=O)O)c1 | -7% | 1.5
O=c1[nH]c2cc(Cl)c(Cl)cc2[nH]c1=O | -2%&8% | 6.0&12
C=C[C@](C)(O)CCC1C(=C)CCC2[C@@](C)(CO)CCC[C@@]12C (stereo partly specified) | 1% | -0.8
CS(=O)(=O)Nc1cccc(-c2nc(Nc3ccc(F)cc3)c3ccccc3n2)c1 | 19% | -0.3
CCCCCCCCCCCCCCCCCCCCCC(=O)Nc1ccn([C@@H]2O[C@H](CO)[C@@H](O)[C@@H]2O)c(=O)n1 | 12% | 5.3
COC(=O)CCCC[C@@H]1SC[C@@H]2NC(=O)N[C@@H]21 | 14% | -8.8
O=C(c1ccc(OCCCc2cnc[nH]2)cc1)C1CC1 | 3%&1% | -2.9&-0.3
COc1ccc(C2CC(=O)Oc3ccc(O)cc32)cc1 (stereo unspecified) | ? | 2.1[94.6 µM]
COC(=O)C1(C)C=CC2(CCCCC2)N1C(C)=O (stereo unspecified) | -1% | -1.9
COCCn1c(=O)c(-c2ccc(OC)cc2)nc2cnc(N3CCN(C)CC3)nc21 | 21% | -7.1
Next part:
SMILES | Sfp PPTase inh | Menin-MLL FL inh
COc1cccc(-c2nnc3n2N=C(c2c(OC)cccc2OC)CS3)c1 | -10% | -5.5
Cc1cnc(CNc2ncncc2-c2ccccc2CN(C)C)cn1 | -64% | 0.0
COc1ncc2nc(-c3ccc(F)cc3)c(=O)n(C3CC3)c2n1 | 24% | 4.9
O=C(O)CCC(=O)C(=O)O (tested in a mixture with another compound) | -6% | -4.6
Cc1cnc(CNc2cc(-c3c(C)noc3C)ncn2)cn1 | 6% | 1.7
Cc1ccccc1C1CC(=O)Oc2cc(C)c(Cl)c(C)c21 (stereo unspecified) | -29% | -1.3[94.6 µM]
CCCCCCCCN[C@@H](C)[C@H](O)c1ccc(SC(C)C)cc1 | ? | 0.6[24.8 µM]
CSCC[C@H](NC(=O)CN)C(=O)N[C@@H](CC(=O)O)C(=O)N[C@@H](CO)C(=O)N[C@@H](CC(C)C)C(=O)N[C@@H](C)C(=O)N[C@@H](Cc1ccccc1)C(=O)N[C@@H](CO)C(=O)NCC(=O)NCC(=O)N[C@@H](CC(C)C)C(N)=O | 11% | 3.7
COC(=O)C1OC(=O)C2OC23[C@]2(C)C(OC(C)=O)CC4C(C)(C)C(=O)CC[C@]4(C)C2CC[C@@]13C (stereo partly specified) | 12% | -2.5
CCC1=C2CC[C@H]3C(=O)NC(=O)[C@H]3[C@H]2[C@@]2(C)C(=NCCc3c[nH]c4ccccc34)OC(=O)N2C1=O | 13% | -1.8
COc1cccc(-c2nc(NCCc3c[nH]c4ccc(OC)cc34)c3ccccc3n2)c1 | -14% | -2.7
NCCC[C@@H](CC(=O)N[C@@H]1CCNC[C@H]1C(=O)N[C@H](CC(=O)N[C@@H](CCC(=O)O)CC(=O)O)Cc1c[nH]c2ccccc12)NC(=O)C[C@H](Cc1ccccc1)NC(=O)[C@@H]1CNCC[C@H]1N | -18% | 1.3
O=C(O)c1ccc(-c2ccc(-c3ccccc3)cc2)o1 | ? | 0.6[94.6 µM]
Cc1ccncc1C(=O)O | 12% | 6.6
CCCCCCCCc1ccc(-c2ccc(C(=O)O)cc2)cc1 | 18%&10% | -0.8&0.2
COCCn1c(=O)c(-c2cccs2)nc2cnc(OC)nc21 | 21% | -13
COc1ccc(COC(=O)N/N=C2/C[C@@H](O)[C@@H](O)[C@@H]3[C@@H]4C(=O)N(C5CCCCC5)C(=O)[C@H]4CC[C@H]23)cc1 | -1% | -0.5[11.7 µM]
COc1cc(-c2oc3cc(O)cc(O)c3c(=O)c2OC[C@@H]2OC(O[C@@H]3O[C@@H](C)[C@H](O)[C@@H](O)[C@H]3O)[C@@H](O)[C@H](O)[C@@H]2O)ccc1O (stereo partly specified) | 6% | 2.1
CC(C)c1ccc2c([Si](C)(C)C)c3c(nc2c1)-c1cccc(=O)n1C3 | -6% | 0.8
